D2 agonist – agonists of human D2 dopamine receptor (beta-arrestin). P14416. DiscoveRx PathHunter D2 beta-arrestin, luminescence, 90 min; 100% = 57 uM dopamine signal. activation, % (concentration not given with the values). 360,000 compounds, 0.084% hits. AID 624465; in the data active = activation above about 40%; inconclusive = about 15% to 40%; inactive = below about 15%; note: the text of the record calls up to 30% inactive
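Agonist mode: compounds alone added to overnight-plated D2 PathHunter cells for 90 min at 37 C, with 57 uM final dopamine (EC100) defining full response. Beta-arrestin recruitment detected by chemiluminescent reagent, read after 1 h at ambient temperature.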
TRPML1 blocker – inhibitors of human TRPML1 channel; activity change, negative = inhibition, % (no concentration beside the values); 390,000 compounds, 0.02% hits; AID 624415; TRPML1-inducible cells, Ca2+ dye fluorescence, FDSS; active compounds read low; inhibition of EC80 agonist-evoked calcium signal; in the data active means activity change below about -50%; inconclusive means about -30% to -50%; inactive means above about -30%;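 note: stimulus is agonist 54-4 at its EC80 concentration; % is set by controls: 0 for no effect and ±100 for the full control effect; compound concentration not given in the record; the text of the record puts the active cut at -80%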
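Tet-induced TRPML1-DL cells loaded with Ca8 no-wash calcium dye were read kinetically on FDSS. Compound addition was followed by EC80 agonist 54-4 (4 uM final); inhibition was read over 110 s.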
PINK1 expr mod – changes PINK1 expression; AID 624263; PINK1 immunofluorescence, high-content cytometry, 24 h; Potency, µM (titrated, usually from 76.6 µM), for inactives: at the highest dose activation (PINK1 increase), hits mostly activators; 410,000 compounds, 0.2% hits; active = well fitted activation curve with a large enough effect; inconclusive = small, poorly fitted or top-dose-only effect; inactive = flat fitted curve, though single readings scatter; cell line not stated here;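 note: potency is the fitted concentration of half-maximal effect; % of control where 0% means no effect; nearly all actives have a fitted effect of over 65% in size; a mitochondrial uncoupler was the plate control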
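Decision-based qHTS: stable cells, 24 h exposure to five compound concentrations, CCCP as control. Fixed cells stained for PINK1 plus nuclear, mitochondrial and cell markers, cytometer read.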
D2 PAM – potentiates the human D2 dopamine receptor allosterically; P14416; DiscoveRx D2 beta-arrestin cells, luminescence, 90 min; 100% = 57 uM dopamine signal; potentiation, % (no concentration beside the values); 360,000 compounds, 0.23% hits; AID 624464; active = potentiation of 50% or more; inconclusive = 30% to 50%; inactive = 30% or less;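 note: compound concentration not given in the record; tested on top of an EC20 dose of dopamine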
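PathHunter D2 cells, attached overnight at 37 deg C, received compound in DMSO plus dopamine at EC20 (50 nM final) for 90 min at 37 deg C. Beta-arrestin recruitment was read as luminescence after 1 h with detection reagent at ambient temperature.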
Six1-Eya2 inh – Six1/Eya2 interaction inhibition; Q15475+O00167; AlphaScreen GST-Six1/His-Eya2 binding, biochemical; active compounds read low; control for the full effect not named in the record; activity change, % (no concentration beside the values); 360,000 compounds, 0.56% hits; in the data active = activity change below about -65%; inconclusive = about -30% to -65%; inactive = above about -30%; note: % is set by controls: 0 for no effect and ±100 for the full control effect
Target sequence (O00167 whole entry, looked up): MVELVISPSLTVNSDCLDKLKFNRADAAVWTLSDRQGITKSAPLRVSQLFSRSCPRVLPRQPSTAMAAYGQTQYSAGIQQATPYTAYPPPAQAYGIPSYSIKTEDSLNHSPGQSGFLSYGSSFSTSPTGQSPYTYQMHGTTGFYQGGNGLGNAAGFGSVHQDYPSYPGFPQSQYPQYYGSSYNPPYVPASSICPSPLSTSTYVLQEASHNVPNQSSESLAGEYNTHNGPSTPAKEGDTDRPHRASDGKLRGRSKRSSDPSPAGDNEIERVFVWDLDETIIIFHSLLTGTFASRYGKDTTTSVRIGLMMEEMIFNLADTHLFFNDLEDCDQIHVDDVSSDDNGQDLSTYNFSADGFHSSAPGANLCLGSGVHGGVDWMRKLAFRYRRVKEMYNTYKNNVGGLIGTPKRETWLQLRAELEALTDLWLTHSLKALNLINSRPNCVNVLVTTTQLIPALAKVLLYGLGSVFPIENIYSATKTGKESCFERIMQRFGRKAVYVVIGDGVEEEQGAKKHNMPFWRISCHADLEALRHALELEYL
Target sequence (Q15475 whole entry, looked up): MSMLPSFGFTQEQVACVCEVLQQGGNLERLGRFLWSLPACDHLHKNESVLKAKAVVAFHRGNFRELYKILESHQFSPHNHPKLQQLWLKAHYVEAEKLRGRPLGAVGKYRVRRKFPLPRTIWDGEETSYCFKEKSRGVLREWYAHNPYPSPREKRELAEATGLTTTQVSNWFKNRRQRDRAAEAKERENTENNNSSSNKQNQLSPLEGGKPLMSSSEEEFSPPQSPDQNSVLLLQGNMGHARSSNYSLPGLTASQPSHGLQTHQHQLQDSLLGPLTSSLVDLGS
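Compounds are tested against tagged Six1 and Eya2 proteins bridged by glutathione donor and nickel acceptor beads; after a one-hour incubation at 37 °C without light, AlphaScreen emission is recorded.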
TRPML1 ag – activates the human TRPML1 channel; 410,000 compounds, 0.12% hits; activation, % (concentration not given with the values); TRPML1-expressing cells, Ca2+ dye fluorescence, FDSS; host cell line not named in the record; reference of the full effect not given here; Q9GZU1; in the data active = activation above about 50%; inconclusive = about 30% to 50%; inactive = below about 30%; note: 0% is about no effect; the text of the record puts the active cut at 80%
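Calcium fluorescence on an FDSS kinetic reader gave the read-out. Tet-induced TRPML1-DL cells were plated overnight, dye-loaded (Ca8 with quencher, 45-90 min, room temperature, dark), then read 110 s after compound addition, and again 110 s after 4uM final 54-4 (EC80).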
Numbers without * were called inactive; ? = inconclusive; . = no result given; [ ] = another dose, or the depositor's remark. An unsorted share of the library. About 1% of those tested had a hit in this group.

Start of the data: the first 2 compounds, ahead of the listing:
1: c1c2c(cc3sc(N4CCCCC4)nc13)OCCO2
2: COc1cc(Cn2nnc3ccccc32)cc(Br)c1O

Assay by compound | 1 | 2
D2 agonist | 0.5 | -0.4
TRPML1 blocker | -8 | .
PINK1 expr mod | 2.9% | -0.1%
D2 PAM | 0 | 18
Six1-Eya2 inh | -6 | 1
TRPML1 ag | -0.4 | .

The whole of this part, from the first entry:
1: c1c2c(cc3sc(N4CCCCC4)nc13)OCCO2
2: COc1cc(Cn2nnc3ccccc32)cc(Br)c1O
3: CC(/C=C/c1ccccc1)=N\Nc1nc2c(c(=O)[nH]c(=O)n2C)n1CCO
4: O=C(CCCC(=O)NC1CCCCC1)Nc1ccc([N+](=O)[O-])cc1
5: Cc1cc(NS(=O)(=O)c2ccc(NC(=O)c3ccc([N+](=O)[O-])c(Cl)c3)cc2)no1

Assay by compound | 1 | 2 | 3 | 4 | 5
D2 agonist | 0.5 | -0.4 | -2.1 | -2.7 | -2.2
TRPML1 blocker | -8 | . | 8 | -2 | -1
PINK1 expr mod | 2.9% | -0.1% | 0.4% | 0.2% | -3.1%
D2 PAM | 0 | 18 | -5 | -28 | 12
Six1-Eya2 inh | -6 | 1 | -5 | 3 | -2
TRPML1 ag | -0.4 | . | 4.2 | -0.3 | 1.5

6: CCCN(C(=O)CSc1nc2ccccc2n1CC)C1CCS(=O)(=O)C1 (configuration not stated)
7: Cc1ccc(N2C(=S)SC3CS(=O)(=O)CC32)cc1 (configuration not stated)
8: Cc1ccc(OC(=O)CSc2nnc(CNC(=O)c3ccccc3)o2)cc1
9: COCCNC(=O)c1ccc(N2CC3CC(C2)c2cccc(=O)n2C3)c(NC(=O)c2ccc(Br)o2)c1 (configuration not stated)
10: COc1ccccc1NC(=O)c1cc(S(=O)(=O)N(C)C2CCCCC2)ccc1F

Assay by compound | 6 | 7 | 8 | 9 | 10
D2 agonist | -3.9 | 3.9 | . | -6.4 | .
TRPML1 blocker | 2 | 3 | -13 | 29 | -10
PINK1 expr mod | 1.3% | 1.6% | -0.7% | -0.5% | 0.1%
D2 PAM | -14 | -3 | . | -11 | .
Six1-Eya2 inh | 4 | 2 | . | 5 | .
TRPML1 ag | 0.3 | -0.7 | -1.0 | 0.5 | 2.0

11: CCN1CCN(Cc2c(C(=O)N/N=C(\C)c3ccc(Cl)cc3)nnn2-c2nonc2N)CC1
12: O=C(/C=C/c1ccncc1)c1ccc(NC(=O)c2ccccc2F)cc1
13: CC1CN(c2ccccc2)CCN1Cc1nc(Cc2ccccc2)no1 (configuration not stated)
14: Cc1ccc(-n2ccnc(NCCc3ccccc3)c2=O)cc1C
15: C=CCSc1nc(-c2ccccc2)c2cc(Cl)ccc2n1

Assay by compound | 11 | 12 | 13 | 14 | 15
D2 agonist | -6.1 | -4.6 | 12 | . | -2.0
TRPML1 blocker | -7 | -6 | -23 | -2 | -11
PINK1 expr mod | -0.6% | -0.8% | -1.8% | -0.2% | -1.3%
D2 PAM | -28 | 3 | -1 | . | -12
Six1-Eya2 inh | -4 | 12 | 3 | . | 27
TRPML1 ag | -0.1 | 0.3 | -0.7 | -0.4 | 1.0

16: CNc1ccccc1C(C)(C)c1ccn[nH]1
17: CC(C)C[C@H]1CN(CCCC[C@H]2CNC(=O)C(=O)N2Cc2ccccc2)C(=O)C(=O)N1CCc1ccccc1
18: COC(=O)c1cn(CC(=O)Nc2ccccc2C)c2ccccc12
19: c1cncc(-c2nc(NCCCN3CCOCC3)c3c4c(sc3n2)CCC4)c1
20: Cc1oc2c(O)c(O)ccc2c(=O)c1-c1cnn(-c2ccccc2)c1

Assay by compound | 16 | 17 | 18 | 19 | 20
D2 agonist | 2.4 | . | -0.3 | -3.7 | 3.3
TRPML1 blocker | -2 | . | . | 6 | 6
PINK1 expr mod | 2.3% | 1.9% | 5.5% | -1.4% | 1.9%[38.3 µM]
D2 PAM | -6 | . | -11 | -18 | 23
Six1-Eya2 inh | -2 | 1 | -1 | -1 | ?
TRPML1 ag | 0.9 | -1.0 | . | -0.7 | 0.4

Reformatted: entries from further up.
No.	Compound	D2 agonist	TRPML1 blocker	PINK1 expr mod	D2 PAM	Six1-Eya2 inh	TRPML1 ag
18	COC(=O)c1cn(CC(=O)Nc2ccccc2C)c2ccccc12	-0.3	.	5.5%	-11	-1	.
17	CC(C)C[C@H]1CN(CCCC[C@H]2CNC(=O)C(=O)N2Cc2ccccc2)C(=O)C(=O)N1CCc1ccccc1	.	.	1.9%	.	1	-1.0

New compounds follow:
21: N#Cc1c(NC(=O)CSc2nc(-c3ccco3)cc(C(F)(F)F)n2)sc2c1CCCC2
22: Cc1ccc(/C=C2\SC(=S)N(/N=C/c3cc([N+](=O)[O-])ccc3O)C2=O)o1
23: CCCn1c(Nc2ccc(Cl)cc2)nc2ccccc21
24: CCC(CC)C(=O)N1CCc2cc(OC)c(OC)cc2C1COc1ccccc1OC (configuration not stated)
25: CC1CN(CCOCCOc2ccccc2-c2ccccc2)CC(C)O1 (configuration not stated)

Assay by compound | 21 | 22 | 23 | 24 | 25
D2 agonist | -0.3 | 0.4 | -3.3 | . | -0.2
TRPML1 blocker | 5 | -16 | -9 | 6 | .
PINK1 expr mod | 4.2% | -3.5% | 11% | -4.3% | 4.3%
D2 PAM | 6 | -7 | -10 | . | -81
Six1-Eya2 inh | 2 | -89* | 4 | . | -9
TRPML1 ag | 1.6 | -0.1 | -0.8 | 2.4 | .

26: CC(C)CNC(=O)CN(c1ccccc1)S(=O)(=O)c1ccccc1[N+](=O)[O-]
27: COc1cc(/C=N/NC(=O)Cc2csc(C)n2)ccc1OCC(C)C
28: CCOc1ccccc1NC(=O)C(OC(=O)C1CC1)c1ccccc1 (configuration not stated)
29: Cc1nc(N2CCN(Cc3ccc4c(c3)OCO4)CC2)c2oc3ccccc3c2n1
30: Cc1nc(N)nc(Nc2ccc(C#N)cc2)c1Br

Assay by compound | 26 | 27 | 28 | 29 | 30
D2 agonist | -6.9 | 3.7 | -6.4 | -1.9 | 1.2
TRPML1 blocker | 11 | 4 | 11 | -5 | -18
PINK1 expr mod | -1.0% | 0.3% | 0.2% | 1.4% | -1.5%
D2 PAM | 6 | -6 | 8 | -13 | -1
Six1-Eya2 inh | 6 | -2 | 20 | -15 | -1
TRPML1 ag | 0.7 | 2.2 | 1.9 | 2.2 | 0.1

31: COc1ccc(N2CCN(C(=O)C3CCN(C(=O)c4ccccc4Cl)CC3)CC2)cc1
32: Cc1c(Cl)c(-c2n[nH]c(=S)n2Cc2ccco2)nn1C
33: COc1ccccc1-c1cc(C(F)(F)F)nc(S(=O)(=O)CCCC(=O)Nc2ccc(F)cc2F)n1
34: OCC1OC(n2cnc3c(NC4CCCCC4)ncnc32)C(O)C1O (configuration not stated)
35: CN(C)CCCN(C(=O)c1ccc(S(=O)(=O)N2CCCCCC2)cc1)c1nc2c(F)cc(F)cc2s1

Assay by compound | 31 | 32 | 33 | 34 | 35
D2 agonist | 5.2 | -0.8 | . | -5.8 | -2.8
TRPML1 blocker | 18 | 0 | 27 | . | 3
PINK1 expr mod | 2.3% | -1.0% | -0.7% | -0.2% | 3.0%
D2 PAM | -2 | -16 | . | -33 | -21
Six1-Eya2 inh | -7 | -1 | . | -1 | -16
TRPML1 ag | -0.4 | 1.3 | 1.3 | . | -0.3

Records listed above that bear a hit mark in Six1-Eya2 inh.
no.	Molecule	D2 agonist	TRPML1 blocker	PINK1 expr mod	D2 PAM	Six1-Eya2 inh
22	Cc1ccc(/C=C2\SC(=S)N(/N=C/c3cc([N+](=O)[O-])ccc3O)C2=O)o1	0.4	-16	-3.5%	-7	-89*

Remaining list, next part
36: CN1CCN(C/C(=C2/N=C(c3ccccc3)OC2=O)N(C)C)CC1
37: COc1cc(CN2CCC(n3nccc3NC(=O)c3ccccc3OC)CC2)ccc1F
38: Cc1cc(C)cc(OCC(=O)Nc2ccc(N3CCN(S(C)(=O)=O)CC3)cc2)c1
39: Cc1ccccc1-c1nnn(CC(=O)NC(=O)NC2CCCC2)n1
40: O=[N+]([O-])c1ccccc1CCc1cnc(Cl)s1

Assay by compound | 36 | 37 | 38 | 39 | 40
D2 agonist | 0.8 | 2.9 | -0.3 | 3.2 | 2.1
TRPML1 blocker | 10 | 7 | 19 | 20 | 29
PINK1 expr mod | 0.2%[38.3 µM] | -1.8% | 0.6% | 3.5% | 4.5%
D2 PAM | -4 | -43 | -4 | 9 | -2
Six1-Eya2 inh | -8 | -9 | 3 | -2 | 5
TRPML1 ag | 0.0 | -0.1 | 0.1 | 3.9 | 0.9

41: CCCCC(=O)Nc1cccc(NC(=O)c2cccc(Br)c2)c1
42: Cc1ccc(C(C)C)c(OCCn2cc(C(=O)c3ccco3)c3ccccc32)c1
43: CC(C)=N/N=c1\scc(C)n1Cc1ccco1
44: COCCn1c(=NC(=O)c2ccc3c(c2)OCCO3)sc2cc(C(=O)OC)ccc21
45: O=C(CCC1N=C2c3ccccc3N=C(SCc3cccc(F)c3)N2C1=O)NCCc1ccccc1 (configuration not stated)

Assay by compound | 41 | 42 | 43 | 44 | 45
D2 agonist | -0.3 | . | 2.0 | . | .
TRPML1 blocker | 10 | 19 | -14 | 11 | 12
PINK1 expr mod | -0.7% | 0.4% | 3.3% | -1.0% | 0.7%
D2 PAM | 0 | . | 7 | . | .
Six1-Eya2 inh | 2 | . | -5 | . | .
TRPML1 ag | -0.6 | -0.1 | 0.4 | 0.3 | 2.2

46: CCCCNC(=O)CNC(=O)c1nn(-c2ccc(OC)c(OC)c2)c(=O)c2ccccc12
47: CN(CC(=O)Nc1c(Cl)cccc1Cl)C(=O)CCC1CCCC1
48: Cc1cccc(/C=N/NC(=O)c2cc(Br)ccc2O)n1
49: COc1ccc(-c2noc(N3CCC(C(=O)Nc4cc(OC)c(OC)c(OC)c4)CC3)n2)cc1
50: Cc1nn(Cc2ccccc2Cl)c(C)c1NC(=O)c1noc(C(C)C)c1[N+](=O)[O-]

Assay by compound | 46 | 47 | 48 | 49 | 50
D2 agonist | 3.3 | 9.5 | -2.5 | 8.7 | -0.3
TRPML1 blocker | -7 | -3 | 2 | 21 | 19
PINK1 expr mod | -0.2% | 0.0% | 0.3% | 1.8% | -0.3%
D2 PAM | -2 | -6 | 0 | -25 | -7
Six1-Eya2 inh | -2 | 1 | -23 | 0 | -1
TRPML1 ag | -0.9 | 0.0 | -1.0 | -0.3 | 0.3

51: COc1cccc(C(=O)Nc2c(C(=O)c3ccc(F)cc3)oc3ccccc23)c1
52: O=C(Cn1c(=O)c2sccc2n(Cc2ccc([N+](=O)[O-])cc2)c1=O)NCCc1ccccc1
53: CCOC(=O)c1cnc2c(C(F)(F)F)cccc2c1NCCCN1CCOCC1
54: CC(=O)C1=C(O)C(=O)N(c2ccc(O)cc2)C1c1ccc(Cl)cc1 (configuration not stated)
55: Cc1ccc(-n2ncc3c(N4CCN(c5ccc(F)cc5)CC4)ncnc32)cc1

Assay by compound | 51 | 52 | 53 | 54 | 55
D2 agonist | . | 4.8 | -3.3 | -5.0 | .
TRPML1 blocker | -1 | 0 | . | 0 | -7
PINK1 expr mod | -0.5% | 1.0% | 2.7% | 4.3% | -0.2%
D2 PAM | . | -2 | -45 | -5 | .
Six1-Eya2 inh | . | ? | -10 | 1 | .
TRPML1 ag | -0.3 | 2.5 | . | 0.7 | 0.3

Assay outcomes: PubChem, National Center for Advancing Translational Sciences (NCATS)
